Mtb betalactam = beta-lactam sensitization of Mtb H37Rv. M. tuberculosis H37Rv growth with meropenem, percent inhibition; hits of this screen are not shown here. inhibition, % at 25 µM. hit rate 0.27% among 330,000;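 active = about 74% or more and at least 40 points above the plate without the antibiotic, then above 30% in a dose series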;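 also: growth measured after seven days incubation then overnight dye step; 0% = bacteria only wells and 100% = bacteria with antibiotic; twin plates without the antibiotic show which effects depend on it; some results filed as inactive read as strong as hits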
Arbovirus anti = blocks arbovirus infection; AID 1251; arbovirus infection cell-based antiviral screen; hit rate 0.37% among 200,000; inhibition, % at 10 µM;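 active = inhibition from about 30%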;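 also: bluetongue infection of BSR cells; cell survival read as ATP light after 72 h; 0% = infected wells without compound and 100% = uninfected wells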
Mtb growth = M. tuberculosis H37Rv growth inhibitors, H37Rv strain (AID 1626); M. tuberculosis H37Rv growth inhibition; higher % means a stronger effect; one-dose inhibition, % at 10 µM; IC50 in µM for titrated hits; hit rate 0.95% among 220,000;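 active = confirmed in a dose series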;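 also: bacteria incubated seven days before Alamar blue readout; 0% = bacteria only wells and 100% = bacteria with antibiotic wells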
YopH inh = blocks Yersinia enterocolitica YopH tyrosine phosphatase; AID 898; hit rate 0.16% among 140,000; fluorescence Ex485/Em525; inhibition, %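 (about 10 µM by stock and volumes)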;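 active = inhibition of 50% or more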;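 also: controls were vehicle for no effect and minimum signal wells for full effect; inactives centre near -20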
RecA intein inh = inhibitors of M. tuberculosis RecA intein splicing; inhibition, %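 (about 9 µM by stock and volumes)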; hit rate 0.75% among 290,000; P9WHJ3; cell-free RecA intein splicing, fluorescence; in the data active = inhibition above about 30%;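 also: 0% = vehicle wells and 100% = reference inhibitor control wells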
Target sequence (P9WHJ3 whole entry, looked up): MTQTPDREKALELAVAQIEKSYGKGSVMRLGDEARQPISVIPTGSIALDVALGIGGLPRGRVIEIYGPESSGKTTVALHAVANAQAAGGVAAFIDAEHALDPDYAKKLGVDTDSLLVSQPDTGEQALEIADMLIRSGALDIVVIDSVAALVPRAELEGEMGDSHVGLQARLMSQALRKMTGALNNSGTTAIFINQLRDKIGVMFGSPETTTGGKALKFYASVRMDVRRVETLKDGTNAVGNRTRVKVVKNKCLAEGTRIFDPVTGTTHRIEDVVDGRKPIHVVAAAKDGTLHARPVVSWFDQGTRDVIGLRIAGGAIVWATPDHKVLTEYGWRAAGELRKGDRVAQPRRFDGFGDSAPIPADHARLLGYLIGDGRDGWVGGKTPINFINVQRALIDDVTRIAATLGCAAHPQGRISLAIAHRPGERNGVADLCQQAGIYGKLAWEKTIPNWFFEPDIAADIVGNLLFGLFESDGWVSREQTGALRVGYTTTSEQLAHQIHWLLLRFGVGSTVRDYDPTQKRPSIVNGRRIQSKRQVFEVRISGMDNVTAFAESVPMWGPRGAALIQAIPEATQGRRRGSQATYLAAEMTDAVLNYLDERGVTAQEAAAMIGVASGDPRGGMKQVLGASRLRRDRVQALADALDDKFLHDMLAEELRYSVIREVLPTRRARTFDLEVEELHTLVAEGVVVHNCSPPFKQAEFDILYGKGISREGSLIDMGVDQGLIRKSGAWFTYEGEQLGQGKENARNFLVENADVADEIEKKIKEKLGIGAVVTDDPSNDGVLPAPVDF
Arbovirus anti repeat = further read-out of Arbovirus anti, marked with its call; inhibition, %; measured here: 10K subset replicate screen; many hits read low in the repeat;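 first of two repeat runs on a subset; 0% = infected and 100% = uninfected wells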
The depositor's hits bear a star; . = no result given. This is a subset; count on the stated rates, not on these rows.

SMILES	Mtb betalactam	Arbovirus anti	Mtb growth	YopH inh	RecA intein inh	others
Cc1csc(NC(=O)c2ccc3c(=O)n4c(nc3c2)CCCCC4)n1	4	1	-1%	-23	-0.8
CCOC(=O)CCNC(=O)CCc1nnc(CCCc2ccccc2)o1	-1	.	.	.	-0.9
CCCCCCN1C=CC(=C2C(=O)c3ccccc3C2=O)C=C1	-5	-30	.	.	0.2
CCc1nnc(NC(=O)c2cccc(S(=O)(=O)N(C)c3ccc(OC)cc3)c2)s1	3	5	-4%	.	1.6
COc1ccc(-c2nnc(SC(=O)N3c4ccccc4Sc4ccccc43)o2)cc1	-3	5	65%	18	47*
O=C(CCC1CCCC1)NNC(=O)c1ccccc1O	2	.	.	.	6.1
CCN(CC)C(=O)C1CCCN(c2ccc([N+](=O)[O-])cc2/C=N/NC(=O)c2cccc(O)c2)C1 (stereo not drawn)	.	3	-3%	12	1.0
COc1cc([N+](=O)[O-])ccc1NC(=O)CSc1nncn1-c1cccnc1	8	.	.	.	-0.4
O=C(NCc1ccccc1)C12CC3CC(CC(Cl)(C3)C1)C2	-6	.	-15%	.	-1.1
CCOc1ccc(CN(C)C(=O)CNC(=O)c2ccc(Br)o2)cc1OC	-2	.	.	.	1.2
O=C(COC(=O)Cc1ccccc1)Nc1nnc(-c2ccccc2)o1	26	.	.	.	6.5
CC(=O)Nc1ccc2c(c1)C(=O)N(c1cccc3ccccc13)C2=O	-5	.	.	.	0.0
COc1ccc(-n2c(O)c(/C=C3\C=Nc4ccc(Br)cc43)c(=O)[nH]c2=O)c(OC)c1	-1	.	.	.	-1.6
c1ccc(N2CCN(c3nc(-c4cccs4)nc4ccccc34)CC2)cc1	97	9	75%	-13	11
CCOC(=O)CSc1cc(C)nc2ccc(OC)cc12	71	7	-1%	.	-3.2
O=C(NCCC1=CCCCC1)c1coc(=O)c(Br)c1	0	-41	-5%	-23	-1.8
OC(CC1CC12c1ccccc1-c1ncccc12)(c1ccccc1)c1ccccc1 (stereo not drawn)	52	-26	4%	-10	21
CCNc1nc(Cl)nc(N(NC(C)=O)C(C)CC)n1 (stereo not drawn)	-1	2	1%	-15	-3.0
COc1ccc(-n2c(SC3CCOC3=O)nc3ccccc3c2=O)cc1Cl (stereo not drawn)	2	14	6%	.	-2.5
O=C(NCc1cccnc1)C1CCN(S(=O)(=O)N2CCC3(CC2)OCCO3)CC1	2	9	-5%	-7	0.6
CC(=O)Nc1ccc2c(c1)nc1n2CCOC1	-15	5	-6%	-8	0.4
CC1(C)CC(=O)C=C(NNC(=O)c2ccccc2)C1	-1	1	-4%	-27	6.0
Cc1nc2ccc(C(=O)NCc3ccc4c(c3)OCO4)cc2s1	2	-11	3%	.	-9.8
O=C(NCC(=O)N1CCN(C(=O)c2ccco2)CC1)c1ccc(Br)cc1	-2	.	.	.	-4.9
Cc1c(O)ccc(C(=O)CN2CCN(Cc3ccc4c(c3)OCO4)CC2)c1O	-5	8	1%	-20	-0.9
SMILES	Mtb betalactam	Arbovirus anti	Mtb growth	YopH inh	RecA intein inh	others
CN1Cc2cccc3c2C(Cc2ccccc2S3)C1 (stereo not drawn)	-4	-7	13%	0	2.4
CC1CCCN(c2ccc(C(=O)OCC(=O)N3c4ccccc4Sc4ccccc43)cc2[N+](=O)[O-])C1 (stereo not drawn)	1	-9	7%	-9	2.9
CCC(CC)COC(=O)C1=C(C)NC(=O)NC1c1cc(OC)ccc1OC (stereo not drawn)	1	.	.	.	-3.1
Cc1cccc(C(=O)Nc2ccc(NC(=O)Cc3ccc(Cl)cc3)cc2)c1	1	-15	-5%	-11	-1.5
COc1ccc(Nc2ccc3nnc(-c4ccc(Br)cc4)n3n2)cc1	.	0	-8%	-17	.
CCCCCCOc1ccc(-c2ccc(C#N)cn2)cc1	91	15	-4%	-13	-1.0
COC(=O)c1c(-c2ccc(OC)c(OC)c2)csc1N	2	-8	2%	1	-2.3
Cc1c(C)n(CCC#N)c2ccc(Cl)cc12	10	-4	4%	-18	1.8
CC(C)C(c1nnnn1C1CCCCC1)N1CCCc2ccccc21 (stereo not drawn)	3	-14	-2%	-28	-2.3
OC(CNC1CCCCC1)c1ccccc1 (stereo not drawn)	-9	3	3%	-22	0.7
CCOC(=O)C1CCN(C(=O)c2sc3ncnc(N4CCC(C)CC4)c3c2C)CC1	-9	-2	3%	-6	1.2
Cc1cc(=O)n2nc(N3CCC(C(=O)NCC(C)c4ccccc4)CC3)sc2n1 (stereo not drawn)	1	.	.	.	-0.8
COc1ccc(CC(=O)NNC(=O)c2ccoc2C)cc1OC	.	3	6%	-14	-3.3
C/C(=N/NS(=O)(=O)c1ccc(CC(C)C)cc1)c1ccncc1	-6	.	.	.	2.2
C/C(=N\N1CCN(C)CC1)c1c(O)n(Cc2ccccc2)c(=O)[nH]c1=O	0	4	-11%	-20	1.0
Cn1cnc2ccc([N+](=O)[O-])cc2c1=O	-17	1	-6%	.	2.3
Cc1cccc(N(CC(=O)NC(C)(C)C)C(=O)CCC(=O)Nc2nccs2)c1	-15	.	.	.	-2.3
CCN1C(=O)N(C)C2(c3ccccc3)N(C)C(=O)N(C)C12c1ccccc1 (stereo not drawn)	12	-1	0%	-37	0.7
CCOC(=O)N1CCC(NC(=S)Nc2ccc3nc(N4CCN(CC)CC4)cc(C)c3c2)CC1	0	-1	-1%	.	2.4
Cn1ccnc1Sc1nnnn1-c1ccccc1	-2	18	-5%	-37	-3.5
O=C(CN1CCc2cc3c(cc2C1)OCCCO3)Nc1ccc(F)cc1	-2	.	.	.	0.0
CCCn1c(SCC(=O)NNC(=O)c2ccc(C)cc2)nnc1C(C)C	-4	.	.	.	5.0
Cc1ccc(OCCCC(=O)Nc2ccc(Br)cc2)cc1	18	2	-4%	-23	0.0
CN(C)c1ccc(C(C(=O)NCC2CCCO2)N(C(=O)c2snc(C(N)=O)c2N)c2ccccc2)cc1 (stereo not drawn)	7	.	.	.	-1.0
Cc1ccc(CCNC(=O)CN2CCN(Cc3ccccc3F)C2=O)cc1	5	7	7%	-30	-1.4

Gathered by group: those above with a cyano group
SMILES	Mtb betalactam	Arbovirus anti	Mtb growth	YopH inh	RecA intein inh	others
CCCCCCOc1ccc(-c2ccc(C#N)cn2)cc1	91	15	-4%	-13	-1.0
Cc1c(C)n(CCC#N)c2ccc(Cl)cc12	10	-4	4%	-18	1.8

Later entries:
SMILES	Mtb betalactam	Arbovirus anti	Mtb growth	YopH inh	RecA intein inh	others
CC(=O)c1ccccc1NC(=O)CCNC(=O)c1ccco1	2	.	.	.	0.7
S=c1[nH]c2ccccc2o1	-6	17	10%	.	-1.2
CC(=O)N1CCN(Cc2nc(C(c3ccccc3)c3ccccc3)no2)CC1	2	-4	1%	.	4.7
COc1nc(Nc2ccccc2F)nc(OC)n1	-12	.	.	.	-4.7
Cc1ccccc1-n1c(SCC(=O)Nc2ccc3c(c2)OCO3)nnc1-c1ccccn1	7	-23	-6%	6	3.9
CC1(C)CC(=O)C2=C(C1)N(c1ccccc1)C(N)=C(C#N)C2c1cccnc1 (stereo not drawn)	11	2	.	-28	-0.3
CCCOc1c(OC)cccc1C1CC(=O)Nc2cc(OC)c(OC)c(OC)c21 (stereo not drawn)	5	-3	-8%	-14	2.0
O=C(CN1C(=O)NC2(CCCCC2)C1=O)NCc1cccs1	2	-5	0%	-11	-0.8
O=C1CCCCCC1C1(O)C(=O)Nc2ccccc21 (stereo not drawn)	-8	-5	3%	-37	-1.6	Arbovirus anti repeat=7
COc1ccccc1OCc1nnc(SCC(=O)NCc2ccco2)n1-c1ccccc1	2	3	-7%	-13	-0.2
O=C(O)CCSC1CC(=O)N(c2ccccc2)C1=O (stereo not drawn)	-4	.	.	.	-3.8
Cc1ccc(C2=NN3C(C2)c2ccccc2OC32C(=O)Nc3ccccc32)cc1 (stereo not drawn)	3	-9	8%	-3	7.5
CCCCC(=O)NC(N1CCCCC1)C(Cl)(Cl)Cl (stereo not drawn)	-9	7	6%	-23	1.0
O=C(Nc1nc(-c2ccc(-c3ccccc3)cc2)cs1)c1cc([N+](=O)[O-])ccc1N1CCOCC1	0	3	4%	.	3.2
COc1ccccc1-c1nc2n(n1)C(c1ccccc1Cl)C(C(N)=O)=C(C)N2 (stereo not drawn)	4	4	3%	-55	-0.9	Arbovirus anti repeat=-5
COc1cccc(C(=O)COC(=O)C2CC(=O)N(c3ccc(Oc4ccccc4OC)cc3)C2)c1 (stereo not drawn)	24	.	.	.	0.3
Cc1ccccc1Nc1c(-c2ccncc2)nc2ccc(Cl)cn12	-4	-16	-3%	.	7.1
C#CCn1c(S(=O)(=O)Cc2ccc(F)cc2)nc(-c2ccccc2)c1-c1ccccc1	-15	25	-4%	-28	0.4
c1ccc(Cn2ccc(-c3cnc(-c4ccccc4)s3)n2)cc1	73	4	8%	-10	3.6
CS(=O)(=O)N(CC(=O)Nc1cccc(F)c1)c1cccc([N+](=O)[O-])c1	4	10	1%	-1	-5.8
COc1cc2[nH]c3c(N4CCN(c5ccccn5)CC4)ncnc3c2cc1OC	99	-14	.	-39	-5.1
CCc1ccc(OCC(=O)NC(NC(=S)Nc2ccc(C)cc2C)C(Cl)(Cl)Cl)cc1 (stereo not drawn)	12	-44	4%	-32	-0.3
CCOc1cccc2c1OC1(C)CC2NC(=O)N1Cc1ccccc1 (stereo not drawn)	.	4	3%	.	0.7
O=C(CNc1ccccc1C(=O)O)c1ccccc1	-3	.	-11%	.	-0.1
COc1ccccc1CNC(=O)CN(CCc1ccccc1)S(C)(=O)=O	-10	5	4%	.	-4.4

Structural class, the entries above containing a Cl atom.
SMILES	Mtb betalactam	Arbovirus anti	Mtb growth	YopH inh	RecA intein inh	others
O=C(NCc1ccccc1)C12CC3CC(CC(Cl)(C3)C1)C2	-6	.	-15%	.	-1.1
CCNc1nc(Cl)nc(N(NC(C)=O)C(C)CC)n1 (stereo not drawn)	-1	2	1%	-15	-3.0
COc1ccc(-n2c(SC3CCOC3=O)nc3ccccc3c2=O)cc1Cl (stereo not drawn)	2	14	6%	.	-2.5
Cc1cccc(C(=O)Nc2ccc(NC(=O)Cc3ccc(Cl)cc3)cc2)c1	1	-15	-5%	-11	-1.5
Cc1c(C)n(CCC#N)c2ccc(Cl)cc12	10	-4	4%	-18	1.8
CCCCC(=O)NC(N1CCCCC1)C(Cl)(Cl)Cl (stereo not drawn)	-9	7	6%	-23	1.0
COc1ccccc1-c1nc2n(n1)C(c1ccccc1Cl)C(C(N)=O)=C(C)N2 (stereo not drawn)	4	4	3%	-55	-0.9	Arbovirus anti repeat=-5
Cc1ccccc1Nc1c(-c2ccncc2)nc2ccc(Cl)cn12	-4	-16	-3%	.	7.1
CCc1ccc(OCC(=O)NC(NC(=S)Nc2ccc(C)cc2C)C(Cl)(Cl)Cl)cc1 (stereo not drawn)	12	-44	4%	-32	-0.3

(listing goes on)
SMILES	Mtb betalactam	Arbovirus anti	Mtb growth	YopH inh	RecA intein inh	others
CC(C)N(C(=O)COc1ccc(Br)cc1Cl)C(C)C	9	3	5%	52*	2.9	Arbovirus anti repeat=0
CCSP1(=S)N=C(N2CCOCC2)C(C#N)=C2CCCN21 (stereo not drawn)	-4	7	-9%	2	-0.2
COc1ccc(-n2ncc3c2CC(C)(C)CC3NC(=O)CCc2c(C)nn(C)c2C)cc1 (stereo not drawn)	2	.	.	.	0.6
CCCCOC(=O)C1=C(C)Nc2ncnn2C1c1ccc(OC)c(OC)c1OC (stereo not drawn)	-11	4	-5%	-6	-0.2
CC(=O)c1ccc(N2C(=O)[C@@H]3[C@H](C2=O)[C@H]2c4ccccc4C=NN2[C@@H]3C(C)=O)cc1	-1	.	.	.	2.6
CCOC(=O)CCSCC(=O)N1N=C(c2cccs2)CC1c1ccc(C)cc1 (stereo not drawn)	-1	8	2%	-23	16
C#CCOCCOCCOCCNc1nc(N2CCN(C(=O)[C@H]([C@@H](C)CC)n3cc([C@@H](N)Cc4ccc(O)cc4)nn3)CC2)nc(N2CCN(C(=O)[C@H](CCCCN)n3cc([C@@H](N)C(C)CC)nn3)CC2)n1 (stereo partly drawn)	80	-5	76%	.	2.0
CC(C)Oc1ccc(C(CC(=O)NCCCN(C)C)c2ccc(F)cc2)cc1 (stereo not drawn)	-5	-23	0%	-2	-0.1

Four entries out of the list, arranged by molecular weight, low to high:
SMILES	Mtb betalactam	Arbovirus anti	Mtb growth	YopH inh	RecA intein inh	others
CCSP1(=S)N=C(N2CCOCC2)C(C#N)=C2CCCN21 (stereo not drawn)	-4	7	-9%	2	-0.2
CC(C)N(C(=O)COc1ccc(Br)cc1Cl)C(C)C	9	3	5%	52*	2.9	Arbovirus anti repeat=0
CC(C)Oc1ccc(C(CC(=O)NCCCN(C)C)c2ccc(F)cc2)cc1 (stereo not drawn)	-5	-23	0%	-2	-0.1
CC(=O)c1ccc(N2C(=O)[C@@H]3[C@H](C2=O)[C@H]2c4ccccc4C=NN2[C@@H]3C(C)=O)cc1	-1	.	.	.	2.6

From PubChem BioAssay
